Screening results as filed in PubChem.
GLA inh pH 4.5: qHTS Assay for Inhibitors of Human alpha-Galactosidase at pH 4.5; Alpha-galactosidase A (Homo sapiens), P06280; purified enzyme, 4-MU-alpha-Gal fluorescence, pH 4.5; activity change, negative = inhibition, % at 105 µM; 230,000 tested, under 10 active; inconclusive = small, poorly fitted or top-dose-only inhibition, or a rising curve; inactive = flat fitted curve, though single readings scatter; no compound was filed as active;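 also: 0% = full activity with enzyme and -100% = basal without enzyme; dose as in the result columns while the protocol names 77 µM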
Rango dissoc inh: qHTS Assay for Inhibitors of RanGTP induced Rango (Ran-regulated importin-beta cargo) - Importin beta complex dissociation; Snurportin-1 (Homo sapiens) + GTP-binding nuclear protein Ran (Homo sapiens) + Importin …; Biochemical FRET Rango-importin beta, RanGTP-induced dissociation; Potency, µM (top dose mostly 46.1 µM), inactives show at the top dose activity change, negative = inhibition; 340,000 compounds, 0.071% hits; active means falling FRET ratio curve, often poorly fitted, with flat reads before Ran was added; inconclusive means other falling curves, or compound fluorescence or quenching; inactive means flat or rising ratio curve;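 also: potency is read from the fitted curve at half-maximal effect; % of control where 0% means no effect; nearly all actives have a fitted effect of over 45% in size; -100% = wells without RanGTP and RCC1; the record marks most hits as doubtful in a second field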
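Compounds sat 5 min at room temperature with 0.1 uM Rango biosensor plus 0.25 uM importin beta, then FRET pre-read. RanGTP-RCC1 (0.6 uM Ran, 2mM GTP, 0.2 uM RCC1) added for 45 min, and the CFP/YFP post-read measured blocked complex dissociation.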
Rango-impB inh: qHTS Assay for Inhibitors of Rango (Ran-regulated importin-beta cargo) - Importin beta complex formation. Importin subunit beta-1 (Homo sapiens), Q14974. Rango CFP/YFP FRET sensor + importin beta, 45 min. Potency, µM (series often up to 92.2 µM), inactives show at the highest dose inhibition of complex formation. 340,000 compounds, 0.031% hits. AID 540263, 2011; active = rising FRET ratio curve, often small or poorly fitted; inconclusive = mostly compound fluorescence or quenching in the first reads; inactive = flat curves in all reads;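 also: potency is read from the fitted curve at half-maximal effect; 0% = DMSO wells and 100% = buffer wells lacking importin beta; nearly all actives have a fitted effect of over 15% in size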
Target sequence (Q14974 whole entry, looked up): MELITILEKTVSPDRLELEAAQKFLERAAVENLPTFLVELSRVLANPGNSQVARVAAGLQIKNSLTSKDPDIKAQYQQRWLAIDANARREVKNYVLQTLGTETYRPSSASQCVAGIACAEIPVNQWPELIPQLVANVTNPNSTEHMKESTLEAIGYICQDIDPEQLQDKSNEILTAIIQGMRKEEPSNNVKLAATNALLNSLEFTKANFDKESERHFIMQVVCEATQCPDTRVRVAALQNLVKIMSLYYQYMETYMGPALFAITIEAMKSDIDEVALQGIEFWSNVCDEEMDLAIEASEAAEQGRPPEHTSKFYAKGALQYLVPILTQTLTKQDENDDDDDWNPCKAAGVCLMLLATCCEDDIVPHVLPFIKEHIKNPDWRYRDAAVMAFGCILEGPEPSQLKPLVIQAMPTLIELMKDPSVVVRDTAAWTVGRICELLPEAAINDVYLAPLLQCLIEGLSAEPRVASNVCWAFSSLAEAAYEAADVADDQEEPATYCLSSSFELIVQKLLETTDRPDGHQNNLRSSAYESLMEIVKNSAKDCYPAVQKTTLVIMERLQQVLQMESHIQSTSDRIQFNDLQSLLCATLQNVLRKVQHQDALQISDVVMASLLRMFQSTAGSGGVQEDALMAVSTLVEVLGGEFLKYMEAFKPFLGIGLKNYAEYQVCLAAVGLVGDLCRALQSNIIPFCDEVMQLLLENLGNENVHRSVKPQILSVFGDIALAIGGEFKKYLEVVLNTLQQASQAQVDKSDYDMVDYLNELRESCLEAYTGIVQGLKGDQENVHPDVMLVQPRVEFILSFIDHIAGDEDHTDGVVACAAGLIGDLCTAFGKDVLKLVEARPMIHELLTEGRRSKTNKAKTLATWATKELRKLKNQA
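FRET biosensor Rango (snurportin 1 IBB between N-terminal EYFP and C-terminal Cerulean), 50 nM in PBS/1 mM DTT/0.02% Tween-20/0.1% BSA, preincubated 5 min RT with compound; 0.125 microM importin beta added, 45 min RT, CFP/YFP FRET ratio read.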
miR-21 FLuc: qHTS Assay for Modulators of miRNAs and/orActivators of miR-21; AID 2288, 2010; HeLa miR-21 FLuc reporter, luciferase, 48 h; Potency, µM (top dose mostly 38.3 µM), for inactives: at the top dose reporter change, positive = more light; 340,000 tested, under 10 active; active = well fitted rising curve with a large enough effect; inconclusive = small, poorly fitted or top-dose-only effect; inactive = no such curve, though single readings can be large or run the other way;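 also: % of control where 0% means no effect; miR-21 action dims this reporter so a rising signal means less miR-21 action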
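Luminescence from a firefly luciferase reporter carrying a miR-21 binding site downstream, stably expressed under a CMV promoter in HeLa cells that make miR-21 endogenously, reports miRNA modulation after 48 h compound exposure up to approximately 40uM final.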
The depositor's hits bear a star; ? = inconclusive; . = no result given; & = joins results of further samples.

Rango-impB inh | GLA inh pH 4.5 | miR-21 FLuc | Rango dissoc inh | smiles
? | . | . | -8% | CCCCn1c(N)c(N(CCOC)C(=O)c2oc3ccc(Br)cc3c2C)c(=O)[nH]c1=O
0.1% | . | -1% | 5% | CCC1(CC)NC(=O)N(CC(=O)N2CCN(S(=O)(=O)c3cccc(F)c3)CC2)C1=O
4.9% | -3 | -6% | 30% | Cc1ccc(C(=O)N2CCN(S(=O)(=O)c3ccccc3[N+](=O)[O-])CC2)o1
-1.8% | . | -4% | 2% | CC(C)Oc1ccc(CN2CCC(n3nccc3NC(=O)C3CC3)CC2)cc1
-3.2% | 2 | -1% | -8% | C=CCSc1[nH]c(=O)cc(C)c1C(N)=O
0.0% | . | . | 9% | CC(=O)NCc1ccc(C(=O)CN2C(=O)NC3(CCCCC3C)C2=O)s1 (configuration not stated)
1.8% | . | . | -16% | O=C(OCC(=O)c1ccc(Cl)s1)c1cncc(Br)c1
-2.4% | -23 | 16% | 7% | COc1ccc(N(C)C(=O)c2ccc3nc(-c4ccccc4)c(-c4ccccc4)nc3c2)cc1
-1.3% | 5 | -1% | 3% | CCCCNC(=O)CSc1nnc(NC(C)=O)s1
0.4% | 1 | -42% | -13% | CCC1CCCCN1C(=O)CCCOc1ccccc1 (configuration not stated)
-2.9% | . | -26% | -14% | COc1cc(Cl)ccc1OCc1cc(C(=O)N[C@H]2CCCCNC2=O)no1
? | -11 | 0% | ? | O=c1[nH]c(CSc2nc3ccccc3o2)nc2c1cnn2-c1ccccc1
-0.2% | -19 | 12% | -10% | COc1ccc(NC(=O)CN(C)Cc2c(F)cccc2Cl)cc1S(=O)(=O)N1CCCCC1
-1.4% | -14&-7 | 6% | -19% | CCC1=C(OC(=O)N(CC)CC)N2C(=O)OC(=NCc3ccccc3)[C@]2(C)[C@H]2C1=CC[C@H]1C(=O)N(c3ccccc3)C(=O)[C@H]12
1.7% | -4 | 11% | 6% | Cc1ccccc1-n1nc(C)c2cc(C(=O)NCc3cccnc3)sc21
-4.1% | 2 | -21% | -10% | COc1cc(/C=C(\C#N)C(=O)NC2CCCCC2)ccc1OCc1ccc(C(=O)O)cc1
? | . | 2% | -2% | CNc1cc(C)c(C#N)c2nc3ccccc3n12
0.5% | . | . | 9% | CC(C)(O)C1CC[C@@](C)([C@@H]2CC[C@]3(C)[C@H]2[C@H](O)CC2[C@@]4(C)CCC(O)C(C)(C)C4C(OC4OC(CO)C(O)C(O)C4O[C@@H]4OCC(O)C(O)C4O)C[C@]23C)O1 (some centres not stated)
-0.1% | 1 | -64% | -2% | CC(C)n1c(/C=C/c2ccccc2)nc2ccccc21
-1.0% | . | -6% | -4% | Cc1ccc(NC2=CC(=O)CC(C)(C)C2)cc1F
-2.5% | 2 | -8% | 2% | Cc1ccccc1CC1(CO)CCCN(C(=O)CCCN2CCCCC2=O)C1 (configuration not stated)
1.0% | . | -9% | -13% | COc1ccc(NC(=O)c2ccc(NC(=O)C3CC3)cc2)cc1
? | -4 | 14% | ? | C=CCOc1ccc(C2C(C#N)=C(N)N(Nc3ccccc3)C3=C2C(=O)CCC3)cc1OC (configuration not stated)
3.5% | -2 | -6% | -8% | CC[C@@H](C)[C@H](NC(=O)C1CCN(C(=O)[C@@H](NS(=O)(=O)c2ccc(C)cc2)C(C)C)CC1)C(=O)O
2.9% | -25 | -7% | -7% | CSc1cccc(NC(=O)CCCOc2ccccc2)c1

The final three compounds of the part above open the next one:
Rango-impB inh | GLA inh pH 4.5 | miR-21 FLuc | Rango dissoc inh | smiles
? | -4 | 14% | ? | C=CCOc1ccc(C2C(C#N)=C(N)N(Nc3ccccc3)C3=C2C(=O)CCC3)cc1OC (configuration not stated)
3.5% | -2 | -6% | -8% | CC[C@@H](C)[C@H](NC(=O)C1CCN(C(=O)[C@@H](NS(=O)(=O)c2ccc(C)cc2)C(C)C)CC1)C(=O)O
2.9% | -25 | -7% | -7% | CSc1cccc(NC(=O)CCCOc2ccccc2)c1
-1.6% | . | . | -21% | O=C1CCN(Cc2ccccc2)S(=O)(=O)c2ccc(F)cc21
-1.3% | 6 | ? | 1% | O=C(CCl)N(c1ccccc1)C1CCS(=O)(=O)C1 (configuration not stated)
3.4% | 1 | -2% | 4% | COc1ccccc1NS(=O)(=O)c1cc(NC(=O)c2ccc(=O)[nH]c2)ccc1N1CCOCC1
6.7% | -19 | 12% | ? | CCOC(=O)C(c1ccccc1)C(Nc1ccc(F)cc1)c1ccccn1 (configuration not stated)
0.4% | 3 | 4% | 0% | Cc1ccc(N(Cc2ccc(C(=O)NC3CCCCC3)cc2)S(C)(=O)=O)cc1C
2.9% | -18 | -1% | 6% | Cc1ccc(S(=O)(=O)NC(=S)NC2CCCCC2)cc1
0.6% | -1 | -9% | 22% | CCN(CC)S(=O)(=O)c1ccc(OC)c(NS(=O)(=O)c2ccc(F)cc2)c1
? | 4 | -30% | ? | CN1C(=O)c2ccc(N3CCCC3)cc2C1=O
1.2% | 3 | -12% | -14% | Cn1c(=O)c2cc(S(=O)(=O)NCCC(=O)NC3CCCCCCC3)ccc2n(C)c1=O
-2.3% | . | . | 2% | O=C(COC(=O)c1cc(S(=O)(=O)N2CCCCC2)ccc1Cl)NC1CCS(=O)(=O)C1 (configuration not stated)
0.6% | -2 | 8% | 2% | COc1ccc(Br)c(OC)c1C(=O)NC(=O)Nc1nc(C)cc(C)n1
-5.6% | . | . | 1% | CSCCC(NC(=O)c1ccccc1Br)C(=O)N1CCN(C(C)=O)CC1 (configuration not stated)
0.6% | . | -57% | 0% | CCN(C(=O)c1ccco1)c1nnc(-c2cccnc2)s1
-6.4% | -4 | 16% | -21% | CCC1(C)CC(CCNS(=O)(=O)c2ccc(C)cc2)(c2ccc(C)cc2)CCO1 (configuration not stated)
1.2% | 2 | -6% | ? | O=C(Cn1c(=O)n(-c2ccccc2)c(=O)c2sccc21)N1CCCC1
3.8% | -8 | -2% | -6% | COc1ccc([N+](=O)[O-])cc1NC(=O)C(C)OC(=O)/C=C/c1ccco1 (configuration not stated)
3.0% | . | 1% | 3% | Cn1c(=O)oc2cc(S(=O)(=O)NCCC(=O)N3CCN(c4ccccc4F)CC3)ccc21
-1.2% | -10 | -4% | -10% | C=CCc1cc(OC)ccc1OCCOCCN1CCc2ccccc2C1
-0.4% | . | 0% | 22% | C=CCn1c(=O)c(C(=O)NCc2ccccc2Cl)c(O)c2ccccc21
-0.6% | -4 | -1% | -3% | O=C1C(Cc2ccccc2)S/C(=N/N=C/c2ccco2)N1c1ccccc1 (configuration not stated)
0.3% | -2 | -14% | 7% | COC(=O)CNc1c(-c2ccccc2)nc2ccc(Br)cn12
-0.4% | . | 0% | 1% | CC1CCc2c(sc(NC(=O)c3c([N+](=O)[O-])cnn3C)c2C(N)=O)C1 (configuration not stated)
-0.8% | -4 | -50% | -12% | O=C(Nc1nc2nccc(-c3ccccc3)n2n1)c1ccccc1
? | . | -5% | -21% | COc1cc(/C=C2\C(=N)N3N=C(C(C)C)SC3=NC2=O)ccc1OCCOc1ccc(NC(C)=O)cc1
? | 2 | 5% | -20% | COc1ccc(C2=C/C(=C\c3ccc(OC(C)=O)cc3)C(=O)O2)cc1
3.9% | 3 | -13% | -14% | CC(=O)c1nn(-c2cccc(Br)c2)cc1C(=O)c1ccc(Cl)cc1
0.0% | 5 | 3% | -5% | O=C(O)c1cccnc1SCC(=O)N1CCCc2ccccc21
2.1% | . | . | -6% | CC(C)CNC(=O)C1Nc2ccc(C(F)(F)F)cc2C2C=CCC12 (configuration not stated)
3.3% | 5 | -5% | -4% | Cc1ccc(OCCCN2CCCC2)c(C)c1
-0.2% | -6 | -7% | 7% | COC(=O)N1CCN(S(=O)(=O)c2ccc(F)cc2)CC1
0.4% | -1 | -3% | 15% | CCOC(=O)c1c(C(=O)OCC)c(C)n(CCc2ccccc2)c1C
1.6% | 6 | -12% | 10% | CC1CN(C2=NC(=O)/C(=C3/C(=O)N(Cc4ccc(F)cc4)c4ccccc43)S2)CC(C)O1 (configuration not stated)
2.8% | 10 | -8% | -3% | CN(CC(=O)NCCc1ccccc1)S(=O)(=O)c1cccc2nsnc12
0.1% | 2 | -62% | -5% | CN1N=C(C(=O)Nc2ccc3c(c2)CCC3)CCC1=O
3.5% | . | -64% | 0% | CCCn1ncc2c(Nc3ccc(C)c(C)c3)ncnc21
0.2% | -6 | -39% | 1% | c1ccc(-c2csc(Nc3cccnc3)n2)nc1
-1.5% | -14 | 1% | 1% | COc1cccc(N=C2SC(CC(=O)Nc3ccccc3)C(=O)N2Cc2ccccn2)c1 (configuration not stated)
1.4% | . | . | 4% | CC1CCN(C(=O)c2[nH]cnc2C(=O)Nc2ccc(Cl)cc2)CC1
-3.3% | . | 3% | 13% | Cc1cc(N2CCN(C(=O)c3cccs3)CC2)c(F)cc1[N+](=O)[O-]
-2.1% | . | . | -9% | CCOC(=O)C1CCN(C(=O)c2ccccc2)C(CC)C1=O (configuration not stated)
2.9% | . | . | 14% | CCN(CC(=O)Nc1cc(Cl)ccc1C)C(=O)CSCc1ccc(C)cc1
1.3% | 10 | 2% | 3% | CC(C)(C)n1nnnc1C(c1cccc(C(F)(F)F)c1)N1CCC(O)CC1 (configuration not stated)
-5.1% | 6 | -5% | -14% | CC1=CC(C)(C(Cl)Cl)C(C)=CC1=O (configuration not stated)
? | 0 | -5% | -25% | O=c1cc(O)c2sc(Nc3ccc(F)c(Cl)c3)nc2[nH]1
-1.2% | . | -7% | 0% | CC(C)c1ccc(N(CC(=O)NCC2CCCO2)C(=O)CCC(=O)Nc2nccs2)cc1 (configuration not stated)
2.8% | -4 | 18% | -1% | Cc1ccc2nc(SC(C(=O)Nc3ccc(F)cc3)c3ccccc3)[nH]c2c1 (configuration not stated)
? | -15 | ? | ? | CN1c2ccccc2C(C)(C)C12C=Nc1c(cc(N3CCOCC3)c3ccccc13)O2 (configuration not stated)
-3.7% | 3 | 1% | -11% | Cc1ccc(CNC(=O)CN(C2CCCCC2)S(C)(=O)=O)cc1
-3.6% | 1 | -1% | 23% | O=C(CCC(NC(=O)OCc1ccccc1)C(=O)OCC(=O)N1CCCCC1)OCC(=O)N1CCCCC1 (configuration not stated)
1.9% | -8 | 1% | 8% | COc1ccc(CN2CCCC(C(=O)c3ccc(Cl)cc3)C2)cc1Cn1cncn1 (configuration not stated)
-2.0% | . | . | 1% | Cc1cc(C)c(OCC(=O)OCC(=O)N2CCc3ccccc3C2)c(C)c1
2.2% | -5 | ? | -19% | CCOC(=O)C1=C(C)NC(=S)N(C(C)=O)C1c1ccc(Cl)cc1 (configuration not stated)
-1.6% | . | -3% | 9% | COc1ccc(C(=O)Nc2ccc(CN3CCOCC3)cc2)cc1Br

Another view of part of the listing above:
Results follow in this order: Rango-impB inh	GLA inh pH 4.5	miR-21 FLuc	Rango dissoc inh
O=C(OCC(=O)c1ccc(Cl)s1)c1cncc(Br)c1
  1.8%	.	.	-16%
CCN(CC)S(=O)(=O)c1ccc(OC)c(NS(=O)(=O)c2ccc(F)cc2)c1
  0.6%	-1	-9%	22%

3 compounds already listed, arranged by the number in Rango-impB inh, smallest number first:
structure,Rango-impB inh
CC1CN(C2=NC(=O)/C(=C3/C(=O)N(Cc4ccc(F)cc4)c4ccccc43)S2)CC(C)O1 (configuration not stated),1.6%
CCCn1ncc2c(Nc3ccc(C)c(C)c3)ncnc21,3.5%
CC(=O)c1nn(-c2cccc(Br)c2)cc1C(=O)c1ccc(Cl)cc1,3.9%

In the list so far, these contain a COOH group:
Rango-impB inh | GLA inh pH 4.5 | miR-21 FLuc | Rango dissoc inh | smiles
-4.1% | 2 | -21% | -10% | COc1cc(/C=C(\C#N)C(=O)NC2CCCCC2)ccc1OCc1ccc(C(=O)O)cc1
3.5% | -2 | -6% | -8% | CC[C@@H](C)[C@H](NC(=O)C1CCN(C(=O)[C@@H](NS(=O)(=O)c2ccc(C)cc2)C(C)C)CC1)C(=O)O
0.0% | 5 | 3% | -5% | O=C(O)c1cccnc1SCC(=O)N1CCCc2ccccc21

A portion of the library; rates above refer to the full screens.
